Calb FLC = C. albicans growth modulation with fluconazole | C. albicans CaCi-2 (fluconazole-resistant clinical isolate) + fluconazole, Alamar Blue growth, 48 h | hit rate 0.57% among 300,000 | AID 1979 | growth inhibition, % (no concentration beside the values);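 active = most replicates above 75%; inconclusive = exactly half above 75%; inactive = most below 75%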;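 also: all wells also contain fluconazole at 8 µg/ml as a sub-toxic cotreatment; 0% = median of DMSO wells and 100% = median of geldanamycin control wells; wells of about 8 µL received 7.5 nL stock; the first replicate is given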
A1 inh = inhibitors of the anti-apoptotic protein A1, read as caspase activation | caspase activation, % (no concentration beside the values) | MEF A1-2A-BIM cells, Caspase-Glo 3/7 luminescence, 3 h; percent of clofoctol response, vehicle zero | hit rate 0.066% among 330,000;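 active = over half of replicate activation scores above 10%, or exactly half above 10 with the replicate mean above 10; inconclusive = replicate mean below 10 yet half the replicates above 10; inactive = over half of replicates below 10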;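 also: wells of about 30 µL received 50 nL stock; many hits fall short of the cut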
Ecoli rRNA inh = inhibitors of bacterial rRNA selective over humanized ribosomes. E. coli WT GFP vs humanized-ribosome RFP mutants, fluorescence, 24 h; stronger effect = lower value; DMSO median 0, no signal -100. GFP signal change (wild-type ribosome), % (concentration not given with the values). hit rate 1.6% among 350,000. AID 720706;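 active = significant combined selectivity score with lowered wild-type GFP, culture density cut under 30%, mutant RFP and density less affected; inactive = any of these conditions unmet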; also: one replicate is shown; some compounds called inactive have numbers as strong as hits
Vif A3G = HIV-1 Vif–A3G interaction blockers – biochemical, TR-FRET, GST-Vif 1-94, biotin-A3G peptide, dose response retest, primary screen (AID 1117319); inhibition, %, or IC50 in µM where a hit was titrated; TR-FRET GST-Vif / biotin-A3G peptide binding; higher % means a stronger effect; test concentration not given here; strong numbers were not always called active; hit rate 0.57% among 260,000;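 active = above the screen mean plus three standard deviations and confirmed in dose response; inconclusive = results disagree or hit not tested in dose response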;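 also: Vif residues 1-94 fused to GST binding biotinylated APOBEC3G peptide 110-148; 0% = full assay without inhibitor and 100% = GST in place of GST-Vif; retest series ran down from 100 µM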
RanGTP-Imp inh = inhibitors of RanGTP-importin-beta interaction, primary screen, biochemical, FRET, CFP-Ran, YFP-importin-beta, homogeneous; cell-free CFP-Ran/YFP-importin-beta FRET ratio; inhibition, % (concentration not given with the values); hit rate 1.1% among 300,000;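 active = most replicates above 15%; inconclusive = exactly half above 15%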;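 also: 0% = DMSO wells and 100% = Ran loaded with GDP instead of GTP; wells of about 40 µL received 100 nL stock; the first replicate is given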
T cruzi repl = blocks replication of Trypanosoma cruzi; T. cruzi beta-gal in NIH3T3, luminescence, 90 h; inhibition, % (no concentration beside the values); hit rate 1.4% among 300,000;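 active = mean inhibition across valid replicates above about 55%, limit read from the data; inconclusive = mean below that limit but half or more replicates reach it; inactive = mean below it, under half of replicates reach it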;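 also: signal also drops with host cell toxicity which is not excluded here; 0% = plate median of DMSO wells and 100% = zero luminescence signal; higher percent means less beta-gal luminescence so fewer parasites; stock transfer was 50 nL into about 50 µL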
Beta apoptosis = beta cell apoptosis inhibition; AID 435005; hit rate 0.8% among 300,000; protection from apoptosis, % (test concentration not listed); INS-1E cytokine-induced death, ATP luminescence, 48 h; percent of positive-control rescue, neutral wells zero;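 active = all replicates at 75% or more, or half of them and the mean; inconclusive = half reach 75% but not the mean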;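 also: 0% = cytokine-treated negative control wells and 100% = positive control rescue; higher means more ATP so stronger rescue from cytokine killing; wells of about 40 µL received 100 nL stock; the first replicate is given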
AF4-AF9 inh = MLL-AF4/AF9 protein interaction inhibition; P42568; AlphaScreen, biotin-AF4 peptide binding to FLAG-AF9; inhibition, % at 10 µM; hit rate 0.47% among 350,000;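 active = every replicate reaching a set inhibition limit, whatever the replicate mean, cut at about 25% in these data; inconclusive = mean inhibition reaches that limit but some replicates miss it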;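 also: 0% = plate neutral control median and 100% = total signal loss; the record names both 10 and 1 µM as test concentration; the first replicate is given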
Target sequence (P42568 whole entry, looked up): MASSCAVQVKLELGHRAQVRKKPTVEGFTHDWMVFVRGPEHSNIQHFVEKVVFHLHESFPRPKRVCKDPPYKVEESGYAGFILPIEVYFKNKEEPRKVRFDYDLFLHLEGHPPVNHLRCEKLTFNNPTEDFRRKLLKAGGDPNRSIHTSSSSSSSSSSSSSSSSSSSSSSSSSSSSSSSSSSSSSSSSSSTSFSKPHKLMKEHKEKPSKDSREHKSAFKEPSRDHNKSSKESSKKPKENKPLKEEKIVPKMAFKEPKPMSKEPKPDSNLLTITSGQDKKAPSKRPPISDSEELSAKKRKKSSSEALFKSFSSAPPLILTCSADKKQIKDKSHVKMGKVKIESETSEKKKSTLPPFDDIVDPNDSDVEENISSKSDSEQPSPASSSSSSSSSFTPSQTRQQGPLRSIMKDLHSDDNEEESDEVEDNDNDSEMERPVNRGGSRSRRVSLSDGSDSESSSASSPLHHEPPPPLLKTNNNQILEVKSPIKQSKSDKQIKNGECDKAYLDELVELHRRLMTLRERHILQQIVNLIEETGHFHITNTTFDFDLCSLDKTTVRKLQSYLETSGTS
Ecoli rRNA inh OD600 = recorded beside Ecoli rRNA inh, whose call it bears; OD600 change, %; measured here: OD600 growth;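 optical density of the mix in the first replicate; 0 = DMSO median and -100 = no signal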
Ecoli rRNA inh RFP = second read-out of Ecoli rRNA inh, no call of its own (marks repeat the call); RFP signal change, %; measured here: RFP humanized mutant strains;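 first replicate; 0 = DMSO median and -100 = no signal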
* marks the source's active call; other numbers are inactive results; u = inconclusive; x = not tested or not shown; & = joins results of further samples.

Results follow in this order: Ecoli rRNA inh OD600, Vif A3G, RanGTP-Imp inh, Beta apoptosis, T cruzi repl, AF4-AF9 inh, Ecoli rRNA inh RFP, Ecoli rRNA inh, A1 inh, Calb FLC
CN(C)S(=O)(=O)c1cccc(NC(=O)CN2C(=O)NC(CCc3ccccc3)C2=O)c1 (stereo not given)
 : -9, 2%, -7.4, -1, -11, -1.2, 1.6, -6, 0.1, 28
Cc1ccc(S(=O)(=O)C(C#N)c2nc3ccccc3nc2OCCO)cc1 (stereo not given)
 : 1, -2%, 26*, 9, -2, 0.2, -0.5, 5, -0.5, 29
COC(=O)C1=C(C)N(Cc2ccccc2)C(=S)N[C@H]1c1ccc(Br)cc1
 : -24, x, x, 2, x, -0.5, -1.3, -14, -0.2, x
Cc1onc(-c2ccccc2)c1NC(=O)N(CCC(=O)O)Cc1ccccc1
 : 4, -3%, 1.9, x, -20, -1.7, 0.0, 14, 0.4, -1
Cc1ccc(C)n1CCN1CCN(C(=O)c2ccc(Cl)cc2)CC1
 : 14, x, -2.0, -4, -8, -0.2, 3.8, 12, -0.4, 3
CCN(C(=O)CCN1C(=O)S/C(=C\c2ccccc2)C1=O)C1CCS(=O)(=O)C1 (stereo not given)
 : -2, x, -2.8, 7, -16, -1.4, -1.7, -4, -1.0, 0
CCN(CC)CCN(C(=O)c1ccc(N2C(=O)CCC2=O)cc1)c1nc2cc3c(cc2s1)OCO3
 : -11, u, u, -9, 41, x, -4.8, 5, 0.9, 11
CC(=O)c1cccc(NS(=O)(=O)c2ccc(-c3cnc(C4CC4)o3)cc2)c1
 : -11, 2%, 0.5, 45, -17, -0.1, -12, -15, 0.1, 7
CCOc1ccccc1NS(=O)(=O)c1ccc(OC)c(OC)c1
 : x, 22%, -2.6, -1, -17, x, x, x, -0.5, -2
COc1ccc(NCCc2ccccn2)cc1
 : 10, x, 1.7, 2, 14, 11, 9.2, 13, -3.9, 0
O=C(Nc1ccc(C(=O)N2CCCCC2)cc1)Nc1cccc(Cl)c1
 : 6, x, x, -6, 5, -4.1, -1.5, 3, -4.5, x
COc1ccc(NC(=S)N2C3CCC2CC(NC(=O)NC24CC5CC(CC(C5)C2)C4)C3)c(OC)c1 (stereo not given)
 : -26, 11%, 0.5, x, -3, 5.3, -7.2, -16, 0.8, -24
Cn1nnc2cc(NC(=O)Nc3cccc(C(F)(F)F)c3)ccc21
 : 10, -10%, -2.2, -2, 4, -4.7, 0.4, 6, 0.0, -3
C[C@@H](NC(=O)[C@@H]1Cc2ccccc2CN1)C(=O)NC1CCCCC1
 : 12, x, u, -5, 2, -0.8, -0.8, 7, -0.4, -27
Cc1ccc(C)n1-c1ccc(C(=O)NCc2ccncc2)cc1
 : 6, 17%, 1.9, -12, -23, 2.1, -0.1, 8, 0.2, 17
Cc1ccc(-n2c(-c3ccncc3)n[nH]c2=S)cc1C
 : 6, x, -2.0, 1, 3, -8.1, -2.9, 9, 0.3, -6
COc1cc(NC(=O)COC(=O)c2nc3nc(C)cc(C)n3n2)cc(OC)c1
 : x, 17%, -2.9, 3, -16, x, x, x, 1.0, -28
Cc1ccc2ncccc2c1N
 : 5, -8%, 4.5, 1, -9, -1.7, 2.0, 3, 0.1, -12
COc1ccc(NC(=S)N2CCC(c3nc4ccccc4[nH]3)CC2)c(OC)c1
 : x, u, -4.2, 6, 2, x, x, x, -0.1, u
CC(=O)Nc1ccc(S(=O)(=O)NCCSCc2c(Cl)cccc2Cl)cc1
 : x, -5%, u, 11, 2, x, x, x, -0.8, -13
CCCn1c(SCC(=O)c2c(N)n(C3CC3)c(=O)[nH]c2=O)nc2cc(S(N)(=O)=O)ccc21
 : 7, 3%, x, 2, x, -1.5, -1.9, 12, 0.9, x
CC1CCCN(C(=O)CN2C(=O)C(C)Oc3ccccc32)C1 (stereo not given)
 : 2, 3%, 0.4, 0, -12, -0.9, -0.9, 1, u, -3
COCCNC(=O)CCCn1c(=O)c2cc(OC)c(OC)cc2n(CC(=O)Nc2ccc(C)c(F)c2)c1=O
 : 16, x, -0.3, 2, 3, 4.8, 7.4, 13, -0.1, -1
COc1cc(NC(=O)c2cc(CC(C)C)on2)c(OC)cc1Cl
 : -5, 4%, 3.6, -2, 9, 13, -5.7, 1, -0.4, -3
CS(=O)c1ccccc1-c1nc(-c2cccc(Cl)c2)no1 (stereo not given)
 : -15, -1%, 2.9, x, 2, -0.1, -1.8, -18, 1.2, 8
CC/C(=N\NC(=O)c1cc(C2CC2)[nH]n1)c1ccccc1
 : 7, x, 38*, -5, 2, 0.1, 1.1, 1, 0.6, 3
COc1cc(/C=N/NC(=O)c2cc(C)n(-c3ccc(F)cc3)c2C)cc(OC)c1O
 : -3, u, -0.8, -5, 8, 4.8, -0.6, -3, 0.0, 14
CCOC(=O)C(=CNNc1ccccc1)C(=O)OCC
 : 12, 8%, -4.4, -25, 33, 1.3, 0.5, 4, -3.7, -8
COc1cccc(N2CCN(Cc3nnnn3C3CCCCC3)CC2)c1
 : 14, -19%, 4.7, 1, 5, -4.1, -0.2, 14, 0.3, 2
Oc1ccc(C[C@@H]2CNCCN2CCc2cc(C(F)(F)F)cc(C(F)(F)F)c2)cc1
 : -77, x, -1.1, -1, 26, 8.1, -37, -55, 0.9, -2
CCC(C)Oc1cccc(OCCCCN2C(=O)NC(C)(C)C2=O)c1 (stereo not given)
 : x, 2%, -2.1, -1, 21, x, x, x, 0.5, -5
CC(=O)Nc1ccc(S(=O)(=O)NC(C)C(=O)OCCOc2ccc(F)cc2)cc1 (stereo not given)
 : 4, -3%, x, -5, x, 0.0, 1.0, 4, -0.9, x
CN1C(=O)/C(=C\C(=O)c2cccs2)c2ccccc21
 : 10, 13%, -3.0, x, -26, 11, 0.3, 5, x, 97*
Cc1ccc(C)c(N2CCN(C(=O)CCC(=O)N3CCOc4ccc(Cl)cc43)CC2)c1
 : -21, x, 3.6, -2, 55*, -2.7, 3.9, -1, 0.1, 7
O=C(COc1coc(CN2CCN(c3ccccc3)CC2)cc1=O)Nc1ccccc1F
 : 22, 12%, -0.7, -1, 0, 8.0, 3.4, 11, 0.1, 3
Nc1ccc(C(=O)Nc2nccs2)cc1
 : 12, -4%, -1.2, 0, -14, -2.7, -1.1, 4, -2.4, u
CC(=O)Nc1ccc(S(=O)(=O)N2CCC(N3CCCC3)CC2)cc1
 : 19, x, 0.7, 1, 7, 0.8, 2.0, 16, 0.2, -3
Cc1onc(-c2ccccc2)c1C(=O)NCC(O)c1ccccc1 (stereo not given)
 : 11, -9%, 1.8, x, -10, -2.3, 0.6, 9, 0.6, 0
CCC(CC)C(=O)c1c[nH]c(C(=O)NC2CCCCCC2)c1
 : -8, 20%, -1.3, 5, 10, 2.7, -1.7, -10, -0.5, 25
Cc1ccc(S(=O)(=O)c2c(C)c(C)c(C)[nH]c2=O)cc1
 : 5, 4%, -1.2, -2, -1, -2.7, -0.2, 8, -0.1, -2
COc1cc2c(cc1OC)C(c1cccc([N+](=O)[O-])c1)N(C(=O)c1ccc(F)cc1)CC2 (stereo not given)
 : x, 8%, 4.3, 4, 6, x, x, x, 0.4, -8
CC(C)CCN(C)c1ccc(/C=N/n2cnnc2)cc1
 : x, 1%, 4.7, -12, 29, x, x, x, 0.0, 3
CCC(C)N(C(=O)COC(=O)CNC(=O)c1sc2ccccc2c1Cl)C1CCS(=O)(=O)C1 (stereo not given)
 : 8, x, -1.5, -2, -4, -3.3, -0.5, 1, -0.6, -4
CN(Cc1ccccc1)C(=O)c1ccccc1-c1ccccc1
 : -44, -1%, 0.4, 5, 3, -2.2, -2.5, -34, -0.4, -5
Cc1ccc(OCC(O)CNC2CCCC2)cc1C (stereo not given)
 : -1, 3%, -0.7, -4, 15, -3.5, -5.6, -5, 0.9, -7
C=C1CCN([C@@H](Cc2ccccc2)C(=O)NC2CCN(Cc3ccccc3)CC2)S(=O)(=O)c2ccccc21
 : -11, x, 2.5, 3, 10, x, 2.0, 2, 1.8, 6
O=C(CNC(=O)c1ccc(Br)cc1)N/N=C/c1cccnc1
 : 11, x, 6.7, -3, -7, -1.2, 2.1, 7, 1.2, 17
Cc1cc(C(=O)COC(=O)Cn2c(C(F)(F)F)nc3ccccc32)c(C)n1Cc1ccco1
 : x, 7%&1%, -0.4, 4, -10, x, x, x, 0.0, -1
O=C(NCc1ccc2c(c1)OCO2)C(=O)NCC1OCCCN1S(=O)(=O)c1ccc(F)cc1 (stereo not given)
 : 5, x, 0.3, 2, -9, 0.3, 3.5, 6, -0.6, 1
CCOC(=O)c1[nH]c2ccc(F)cc2c1NC(=O)c1cc(OC)c(OC)c(OC)c1
 : x, -9%&0%, 1.7, 16, 8, x, x, x, 0.0, -4
COc1ccc(Nc2nc3[nH]c(=O)cc(O)c3s2)cc1
 : 19, 6%, -7.9, x, -15, -3.6, 1.0, 14, -0.9, -12
Cc1oc(/N=C/c2cccc3ccccc23)c(C#N)c1C
 : 7, 53µM*, 7.4, -1, -14, 7.1, 16, 12, 1.3, 1
Cc1ccc(NC(=O)CCNS(=O)(=O)c2ccc3[nH]c(=O)oc3c2)cc1C
 : 11, x, 4.4, 1, -11, 0.2, -0.8, 1, 2.6, -5
O=C(NNC(=O)c1cc2ccccc2oc1=O)c1ccccc1[N+](=O)[O-]
 : 5, -1%, 1.3, 0, 2, -11, -0.5, 1, 0.5, -1
CC(C)CN(CC(C)C)S(=O)(=O)N1CCC(C(=O)N2CCc3ccccc3C2)CC1
 : x, 10%, 2.6, 13, 10, x, x, x, -1.2, 4
CCNC(=O)NC(=O)C(C)Sc1ncc(C(F)(F)F)cc1Cl (stereo not given)
 : -9, 4%, -3.2, 0, 14, -0.4, 2.0, -6, 0.1, -9

A portion of the library, so the mix of outcomes need not match the whole.
